From PubChem
Menin-MLL FL inh – displaces fluorescein MLL peptide from human menin | AID 1766 | Fluorescence polarization, fluorescein-MLL peptide displacement from menin | FP activity change, % at 61.4 µM | 290,000 tested, under 10 active; inconclusive = falling polarisation curve, or a change in total fluorescence; inactive = total fluorescence flat and polarisation flat or rising; no compound was filed as active; the % refers to the polarisation; negative = inhibition;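 note: % of control where 0% means no effect; inhibitors lower the polarisation; unlabelled MLL peptide was the positive control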
PINK1 expr mod – changes PINK1 expression; PINK1 immunofluorescence, high-content cytometry, 24 h; Potency, µM (doses to about 76.6 µM), inactives show at the top dose activation (PINK1 increase), most hits filed as activators; 410,000 compounds, 0.2% hits; AID 624263; active = well fitted activation curve with a large enough effect; inconclusive = small, poorly fitted or top-dose-only effect; inactive = flat fitted curve, though single readings scatter; cell line not stated here;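 note: potency is the fitted concentration of half-maximal effect; % of control where 0% means no effect; nearly all actives have a fitted effect of over 65% in size; a mitochondrial uncoupler was the plate control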
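Compound titrations (5 concentrations, 24 h) on a stable cell line; DMSO and CCCP controls. Endpoint: fixed-cell PINK1 immunofluorescence with mitochondrial, cell and nuclear markers, scanned by microplate cytometer.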
ClpP mod – qHTS Assay for Activators of ClpP; ATP-dependent Clp protease proteolytic subunit (Bacillus subtilis (strain 168)), P80244; purified B. subtilis ClpP, FRET peptide cleavage, 20 min; Potency, µM (titrated, usually from 57.5 µM), for inactives: top-dose activity change, negative = active; 340,000 compounds, 1.9% hits; active = well fitted falling curve with a large enough effect; inconclusive = small, poorly fitted or top-dose-only effect; inactive = no such curve, though single readings can be large or run the other way; note: potency is the fitted concentration of half-maximal effect; the source files actives as falling curves though it sought activators and does not explain the sign; nearly all actives have a fitted effect of over 65% in size; many hits overshoot -100%
Target sequence (P80244 whole entry, looked up): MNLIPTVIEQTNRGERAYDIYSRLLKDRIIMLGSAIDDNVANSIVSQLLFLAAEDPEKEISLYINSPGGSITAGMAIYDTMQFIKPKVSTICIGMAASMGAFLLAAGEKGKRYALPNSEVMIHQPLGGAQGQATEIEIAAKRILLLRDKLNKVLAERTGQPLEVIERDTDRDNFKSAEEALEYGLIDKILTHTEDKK
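Purified B. subtilis ClpP, 10 microg/mL final in Tris/HCl pH8 with KCl, BSA, glycerol and Tween-20, cleaved an Abz/nitrotyrosine-quenched decapeptide. Fluorescence (ex 320, em 430) was read at 0 and 20 min at room temperature. Delta was normalized to 5.8 microM ADEP and DMSO/no-enzyme controls.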
TRPV1 potentiator – enhances activation of the human vanilloid receptor TRPV1; potentiation, % at 8.33 µM; Q8NER1; 320,000 compounds, 0.02% hits; AID 540277; TRPV1-expressing cells, Fluo-8 calcium influx, capsaicin EC20 potentiation; host cell line not named in the record; control for the full effect not named in the record; active means potentiation above 80%; inconclusive means 30% to 80%; inactive means below 30%; note: 0% is about no effect
Target sequence (Q8NER1 whole entry, looked up): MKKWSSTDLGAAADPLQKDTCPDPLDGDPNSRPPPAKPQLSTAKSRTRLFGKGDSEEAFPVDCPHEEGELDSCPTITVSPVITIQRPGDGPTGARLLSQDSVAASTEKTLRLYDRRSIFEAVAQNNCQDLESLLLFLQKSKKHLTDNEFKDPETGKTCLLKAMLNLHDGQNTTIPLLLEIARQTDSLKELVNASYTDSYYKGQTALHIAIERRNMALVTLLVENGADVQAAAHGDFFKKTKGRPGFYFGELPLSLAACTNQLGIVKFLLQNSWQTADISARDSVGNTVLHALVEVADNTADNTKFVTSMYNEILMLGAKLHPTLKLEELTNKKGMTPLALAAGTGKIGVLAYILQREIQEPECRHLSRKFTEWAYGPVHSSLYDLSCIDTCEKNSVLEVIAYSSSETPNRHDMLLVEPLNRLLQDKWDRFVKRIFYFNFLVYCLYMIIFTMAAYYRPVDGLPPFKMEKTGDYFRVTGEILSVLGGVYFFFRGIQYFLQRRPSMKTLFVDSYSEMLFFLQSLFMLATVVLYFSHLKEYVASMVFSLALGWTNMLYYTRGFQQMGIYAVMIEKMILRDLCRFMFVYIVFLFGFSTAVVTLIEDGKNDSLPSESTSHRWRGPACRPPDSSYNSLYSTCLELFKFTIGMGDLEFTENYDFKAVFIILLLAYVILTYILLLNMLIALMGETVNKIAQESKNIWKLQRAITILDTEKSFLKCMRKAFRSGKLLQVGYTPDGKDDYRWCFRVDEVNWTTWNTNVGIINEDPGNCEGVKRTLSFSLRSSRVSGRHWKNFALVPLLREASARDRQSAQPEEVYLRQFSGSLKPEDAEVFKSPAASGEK
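Fluo-8 calcium influx in TRPV1-expressing cells, kinetic read (ex 480/em 520 nm). Compound added and read 3 min for agonist activity, followed by capsaicin at EC20 final and 2 min further read for enhancement.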
TRPML1 agonist – activates the human TRPML1 channel | TRPML1-expressing cells, Ca2+ dye fluorescence, FDSS; host cell line not named in the record; reference of the full effect not given here | Q9GZU1 | activation, % (concentration not given with the values) | AID 624414 | 410,000 compounds, 0.12% hits; in the data active = activation above about 50%; inconclusive = about 30% to 50%; inactive = below about 30%; note: 0% is about no effect; the text of the record puts the active cut at 80%
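Tet-induced TRPML1-DL cells, 1,500 per well, cultured overnight, were loaded with a no-wash Ca2+ dye for 45–90 min. Calcium fluorescence was recorded on the FDSS for 110 s after compound addition, before the EC80 agonist (4 uM 54-4) was added.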
Sfp PPTase inh – inhibitors of Bacillus subtilis Sfp phosphopantetheinyl transferase. Q9F4F7. Biochemical Sfp PPTase activity, qHTS. Potency, µM, for inactives: max response, negative = inhibition, hits mostly inhibitors. 310,000 compounds, 3.5% hits; active = well fitted inhibition curve with a large enough effect; inconclusive = small, poorly fitted or top-dose-only effect, or another doubt; inactive = no such curve, though single readings can be large or run the other way;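 note: the enzyme is Sfp with the accession as filed and its product quenches rhodamine fluorescence; potency is the fitted concentration of half-maximal effect; 0% = enzyme reaction without inhibitor and -100% = no enzyme wells; top concentration of the series not given in the record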
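Step 1, compound plus 15 nM Sfp-PPTase, 15 min, room temperature. Step 2, add rhodamine-CoA (5 uM) and BHQ-2-YbbR (12.5 uM). Step 3, read 525/598 nm fluorescence at 0 and 30 min.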
TRPML1 blocker – human mucolipin-1 channel inhibition; activity change, negative = inhibition, % (test concentration not listed); 390,000 compounds, 0.02% hits; Q9GZU1; TRPML1-inducible cells, Ca2+ dye fluorescence, FDSS; stronger effect = lower value; inhibition of EC80 agonist-evoked calcium signal; AID 624415; in the data active means activity change below about -50%; inconclusive means about -30% to -50%; inactive means above about -30%;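 note: stimulus is agonist 54-4 at its EC80 concentration; % is set by controls: 0 for no effect and ±100 for the full control effect; compound concentration not given in the record; the text of the record puts the active cut at -80%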
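Tet-induced TRPML1-DL cells loaded with Ca8 no-wash calcium dye were read kinetically on FDSS. Compound addition was followed by EC80 agonist 54-4 (4 uM final); inhibition was read over 110 s.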
* marks the source's active call; other numbers are inactive results; ? = inconclusive; . = not tested or not shown; & = joins results of further samples; [ ] = dose if it differs, or a comment.

SMILES	Menin-MLL FL inh	PINK1 expr mod	ClpP mod	TRPV1 potentiator	TRPML1 agonist	Sfp PPTase inh	TRPML1 blocker
O=C(CSc1n[nH]c(=O)n1Cc1ccco1)Nc1ccccc1Cl	-0.2	-0.9%	-14%	-1	-0.7	-19%	27
CS(=O)(=O)c1ccc2nc(NC(=O)c3ccccc3Cl)sc2c1	2.0	1.8%	1.6%	-5	0.0	24%	74
COc1cccc(/C(O)=C2/C(=O)C(=O)N(Cc3cccnc3)C2c2ccco2)c1 (centres undefined)	2.6	5.8%	0.0%	-15	-0.5	10%	1
Cc1c(C(=O)OC2CCCCC2)sc2nc[nH]c(=O)c12	-1.3	13%[38.3 µM]	28µM*	-4	2.3	20%	2
CCOC(=O)C1=C(C)NC(C)=C(C(=O)OCC)C1c1cccs1	-1.0	?	?	15	1.9	1%	7
Nc1ccc(C(=O)N/N=C/c2cn(Cc3ccccc3)c3ccccc23)cc1	0.0	-0.5%	-13%	5	-0.1	-4%	11
O=C(N/N=C/c1ccccn1)c1cccnc1	-1.8	-0.4%	-0.6%	.	3.2	2µM*	39
CC1(c2ccccc2)NC(=O)N(CCOc2ccccc2)C1=O (centres undefined)	-2.6	-1.1%	1.7%	20	-1.2	11%	7
CCCCOC(=O)/C(=C/C=C/c1ccccc1)NC(=O)c1ccccc1	0.5	0.1%	.	2	0.1	-9%	0
Cc1cccc(-c2nnc(SCc3cc(=O)[nH]c4ccccc34)n2C)c1	2.4	2.5%	-3.0%	1	-0.4	12%	-9
CCN(CC)S(=O)(=O)c1ccc(NC(=O)CCN2C(=O)C3CC=CCC3C2=O)cc1 (centres undefined)	.	1.4%	1.4%	-30	-1.2	.	5
CCOC(=O)C1CCCN(C(=O)/C=C/c2ccccc2[N+](=O)[O-])C1 (centres undefined)	1.8	0.3%	-1.1%	1	0.3	2%	8
CC(C)NC1CS(=O)(=O)CC1O (centres undefined)	2.1	-4.9%[38.3 µM]	-0.2%	9	0.8	11%	-6
CCOC(=O)CN1C(=O)N[C@@H](c2cccs2)C(C(C)=O)=C1C	3.4[11.7 µM]	0.9%	1.1%	.	-0.6	21%	16
COc1ccc(C(CNC(=O)c2ccc(S(=O)(=O)N3CC(C)CC(C)C3)cc2)N(C)C)cc1 (centres undefined)	.	-1.5%	-1.3%	.	6.7	.	29
COc1ccc(Cl)cc1NC(=O)CS(=O)(=O)c1cccc2nsnc12	-0.5	6.4%	1.2%	-1	-1.0	-13%	35
O=C(Cn1nc(C(=O)O)c2ccccc2c1=O)NCCC1=CCCCC1	-0.4	0.0%	-1.7%	-16	2.7	0%	-4
COc1ccc(-c2cc(C3CCN(C(=O)OC(C)(C)C)CC3)[nH]n2)cc1	-1.4	2.2%	-1.3%	3	1.7	5%	-1
C[C@@H](NC(=O)[C@@H]1CCCN1C(=O)OC(C)(C)C)c1ccccc1	.	0.9%	-1.7%	.	-0.3	.	.
O=c1[nH]c(/C=C/c2cccc(Br)c2)nc2ccccc12	.	7.5%	-0.3%	.	0.4	.	37
O=C1CC[C@@H](OCc2ccccc2)CCN1CC[C@H](Sc1ccccc1)c1ccccc1	5.6	?	0.1%&-4.0%	-23	-0.1&0.5	4%	12
Cc1cccc(C(O)C(O)c2cccc(C)n2)n1 (centres undefined)	.	0.2%	.	.	-0.7	.	-6
Cc1ccccc1NC(=O)c1cc([N+](=O)[O-])ccc1NCCN1C(=O)CCC1=O	-1.4	-1.4%	?	-3	-1.2	10%	70
COc1ccc(OC)c(/C(O)=C/C(=O)C(=O)Nc2ccccc2OC)c1	15	-2.5%	2.5%	-6	-0.1	-14%	15
ON=C1CCCC2CCCCC12 (centres undefined)	.	-0.7%	.	.	-0.8	.	-5
CCOC(=O)[C@]12CCC=C1N(Cc1ccc3c(c1)OCO3)C(=O)[C@H](CC(=O)NCc1cccs1)C2	.	-0.3%	2.5%	.	-0.5	.	.
O=C(CCCCn1c(=O)[nH]c2ccccc2c1=O)NCCc1c[nH]c2ccccc12	-2.3	-1.4%	-5.9%	9	-0.8	-4%	-2
CC(=O)OCc1cc2cccc(C)c2[nH]c1=O	3.1	0.5%	?	2	0.2	2%	-6
Cc1ccc(C(=O)Nc2cccc3cccnc23)cc1C	-1.2	1.1%	-0.9%	-5	1.1	-6%	10
CC(=O)Nc1ccc(C(=O)Nc2nnc(CCc3ccccc3)s2)cc1	3.0	3.2%	-13%	2	0.5	7%	2

One compound at a time, as listed above:
Cc1cccc(-c2nnc(SCc3cc(=O)[nH]c4ccccc34)n2C)c1 is listed with Menin-MLL FL inh: 2.4; PINK1 expr mod: 2.5%; ClpP mod: -3.0%; TRPV1 potentiator: 1; TRPML1 agonist: -0.4; Sfp PPTase inh: 12%; TRPML1 blocker: -9
COc1ccc(-c2cc(C3CCN(C(=O)OC(C)(C)C)CC3)[nH]n2)cc1 is listed with Menin-MLL FL inh: -1.4; PINK1 expr mod: 2.2%; ClpP mod: -1.3%; TRPV1 potentiator: 3; TRPML1 agonist: 1.7; Sfp PPTase inh: 5%; TRPML1 blocker: -1

The listing continues:
SMILES	Menin-MLL FL inh	PINK1 expr mod	ClpP mod	TRPV1 potentiator	TRPML1 agonist	Sfp PPTase inh	TRPML1 blocker
O=C1OCCN1C(=O)[C@H]1[C@H](c2ccc([N+](=O)[O-])cc2)C(c2cccc(Cl)c2)=NN1c1ccccc1	-0.7&0.2	0.5%	0.0%	6	-0.2	5%&9%	12
Cc1ccc(S(=O)(=O)NCC(=O)OCc2cc(=O)oc3cc(C)ccc23)cc1	.	-0.3%	-7.3%	0	2.1	.	-25
O=C(c1ccco1)N1CCN(C(=O)c2cn(-c3ccccc3)nc2-c2ccc(F)cc2)CC1	.	0.8%	-7.4%	-19	0.4	.	-21
Cc1ccc2cc(/C=N/NC(=O)[C@@H]3CCCN3)c(Cl)nc2c1	-1.4	-0.8%	-1.0%	24	-0.4	-3%	10
O=C(Nc1ccccn1)c1cccc(S(=O)(=O)N2CCCC2)c1	.	7.6%	-0.1%	-14	-0.2	8%	19
Cc1ccc(O)c(NC(=S)NC(=O)/C=C/c2ccco2)c1	21	11%	.	5	-1.1	-9%	-8
O=C(CSc1ncn[nH]1)Nc1c(F)cc(F)cc1Br	-0.6	3.1%	1.2%	9	0.1	17%	8
CCCCN1C(=O)/C(=C2/Sc3ccc(OC)cc3N2CC)SC1=S	?	?	-4.6%	7	0.9	-5%	4
CCOc1c2ccc(C(=O)NCc3ccco3)cc2nn1CCOC	-1.0	-0.1%	4.3%	-1	0.1	10%	11
Cc1cccc(CNS(=O)(=O)c2ccc(-c3cnc(C4CC4)o3)cc2)c1	.	0.3%&4.1%	3.5%&3.7%	6	2.1&0.8	4%	12&9
COc1ccc([C@@]2(O)c3c(ccc(CC=C(C)C)c3O)NC(=O)[C@@H]2OC)cc1	1.4	0.2%	-2.1%	18	.	12%	.
CC(=O)Nc1ccc(NC(=O)c2ccc(NC(=O)c3ccccc3)cc2)cc1	.	?	0.7%	-10	-0.4	2%	-5
O=C1Nc2ccccc2C12Nc1ccccc1-c1nc3ccccc3n12 (centres undefined)	9.8	3.3%	-10.0%	-19	0.1	4%	9
CN1CCN(S(=O)(=O)c2cccc(C#N)c2)C(c2ccccc2)C1 (centres undefined)	.	0.2%	-1.1%	-1	0.3	.	-1
COc1cc(C2OCC3C(c4cc(OC)c(OC)c(OC)c4)OCC23)cc(OC)c1OC (centres undefined)	0.7	0.4%	1.8%	-6	.	16%	.
O=c1cc(N2CCOCC2)[nH]c(=O)n1-c1ccc(Br)cc1	4.9	1.4%	-2.0%	10	-0.2	0%	-16
O=C(O)CCC(=O)N1CCC(C(=O)c2cccc(Cl)c2)CC1	-0.1	13%[38.3 µM]	-1.3%	8	0.8	5%	21
CCc1cccc(OCC(=O)Nc2ccc(S(=O)(=O)N3CCCC3)cc2)c1	.	-1.2%	-0.6%	-22	3.1	12%	-8
O=C(Cc1nn[nH]n1)Nc1ccc(F)cc1F	-0.4	1.9%	.	5	0.5	3%	35
CCSC1(SCC)N=C(N)C2(C#N)C(c3ccccc3)NC(C)=C(C)C12C#N (centres undefined)	-1.9	0.0%	1.3%	2	0.0	29%	20
CC(C1CC1)N(Cc1ccccc1)C(=O)NC(=O)c1ccc(F)cc1 (centres undefined)	2.2	0.7%	-1.7%	7	-0.2	17%	0
CC1CCC(N(C)C(=O)CN2C(=O)NC(c3ccccc3)(c3ccccc3)C2=O)CC1 (centres undefined)	.	1.5%	-0.6%	.	0.0	.	1
COC(=O)c1sc(NC(=O)CSc2nnnn2-c2ccc(C)cc2C)nc1C	-1.0	0.1%	-1.2%	0	-0.3	-3%	0
CC(Sc1nnc(CN2CCCC2)n1Cc1ccccc1)C(=O)Nc1ccc(F)cc1Cl (centres undefined)	.	2.2%	.	.	0.2	.	-6
COc1cc(/C=C/C(=O)OCC(=O)N2CC(=O)Nc3ccccc32)ccc1O	1.2	5.3%	-21%	1	-0.7	8%	6
COc1ccc(S(=O)(=O)N2CCCCC2c2cc(C(=O)NCc3cccnc3)no2)cc1 (centres undefined)	.	1.2%	0.9%	.	-0.7	.	.
O=C(Nc1ccccc1Cl)C1C2CCC3C(CCC21)C3(Cl)Cl (centres undefined)	-1.8	3.2%	-1.0%	3	-0.1	24%	-9
CCCn1c(NCCO)nc2ccccc21	-1.3	.	0.3%	24	0.3	10%	5
CCOc1cc(N2CCOCC2)c(OCC)cc1NC(=O)COC(=O)COc1cc(C)cc(C)c1	.	-1.1%	-0.7%	7	0.7	.	13
O=C(NCN1CCN(c2ccccc2)CC1)c1cnccn1	-7.3	1.5%	0.8%	6	-0.4	5%	2
O=C(Nc1ccccc1)c1ccccc1CC[N+](=O)[O-]	1.9	0.7%	0.6%	5	-0.3	25%	-7
CC(=O)c1ccc(OCC(O)CN2CCN(CC(O)COc3ccc(C(C)=O)cc3)CC2)cc1 (centres undefined)	-2.1	1.8%	1.3%	2	0.4	10%	2
NC(=O)c1ccc(NC(=O)COC(=O)CCCN2C(=O)c3cccc4cccc(c34)C2=O)cc1	0.7	0.4%	4.1%	6	-0.7	-1%	8
